PABP polyA inh: blocks human PABP binding to poly(A) RNA; fluorescence polarization; inhibition, % at 35 µM; P11940; hit rate 1% among 290,000;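 active = 50% or more with normal probe brightness, or confirmed in later tests; inconclusive = above 50% with abnormal brightness, or retests that disagree; inactive = below 50% or failed in later tests; about a fifth of its hits are not listed in these tables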;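 note: calls also rest on retests at 20 µM and on dose response follow-up; controls were probe without protein and protein plus probe with vehicle; some compounds called inactive have numbers as strong as hits; many hits fall short of the cut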
Rce1 inh: yeast Ras-converting enzyme inhibition; Q03530; yeast membranes, quenched prenylated peptide cleavage fluorescence; calls only; hit rate 0.27% among 290,000; AID 2563;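 active = fall in fluorescence gain of 50% or more versus controls, with final raw signal at or below 3038400; inconclusive = same 50% fall but final raw signal above 3038400; inactive = fall in fluorescence gain under 50%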;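 note: plate controls were neutral control wells for no effect and wells lacking membranes for full effect; tested at 10 µM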
Target sequence (Q03530 whole entry, looked up): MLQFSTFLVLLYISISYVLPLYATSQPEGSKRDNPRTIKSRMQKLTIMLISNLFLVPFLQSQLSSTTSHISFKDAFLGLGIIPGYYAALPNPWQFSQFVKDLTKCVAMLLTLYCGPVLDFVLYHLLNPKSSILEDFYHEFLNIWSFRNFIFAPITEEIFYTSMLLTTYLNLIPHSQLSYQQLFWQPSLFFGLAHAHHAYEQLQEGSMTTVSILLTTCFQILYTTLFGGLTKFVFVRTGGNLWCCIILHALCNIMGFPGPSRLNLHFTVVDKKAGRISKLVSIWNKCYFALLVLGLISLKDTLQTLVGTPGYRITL
Env fusion inh: blocks HIV Env-driven cell-cell fusion | HeLa-JRFL Env/CEM21 cell fusion, luciferase | hit rate 1.1% among 360,000 | AID 651610 | inhibition, % at 12.3 µM;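 active = mean replicate inhibition score of at least 50 and every replicate individually at or above 50; inconclusive = only one of the two criteria met; inactive = mean below 50 and not all replicates reaching 50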;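 note: 0% = plate neutral controls and 100% = maraviroc near 300 nM; one replicate is shown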
MT1-MMP act inh: blocks activation of human MT1-MMP. P50281. HT1080 RFP-PRO-GFP cells, GFP/RFP ratio fluorescence, overnight; percent of plate control window, DMSO zero. GFP/RFP ratio change, % at 20 µM. hit rate 0.061% among 360,000;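 active = GFP/RFP ratio change of at least 30% with cell ATP level not reduced by more than half and red fluorescence within 50% of control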; note: strong numbers were not always called active
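Read-out: GFP/RFP fluorescence ratio; Test system: RFP-PRO-GFP reporter HT1080 cells; Compound dosing: single-point 20 µM compound, 1% DMSO; Times: overnight compound exposure at 37 °C.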
UUG fidelity: alters start codon recognition fidelity in yeast; AID 602363; activity score, % at 18.7 µM; hit rate 0.13% among 350,000; S. cerevisiae UUG-firefly luciferase reporter, luminescence/redox ratio;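 active = replicate mean at a twofold rise or more, about +100% in these data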;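 note: firefly luciferase made from a UUG start codon reports start codon fidelity; reporter light over untreated wells divided by growth signal over untreated wells; some hits fall short of that in this replicate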
CSC inhib: cancer stem cell inhibition. cancer stem cell-like cells viability, luminescence. inhibition, % at 7.5 µM. hit rate 1.1% among 300,000. AID 2717;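 active = mean at 75% or more and at least half the replicates too; inconclusive = mean and replicates disagree; tested in HMLE shEcad cells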;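 note: 0% = median of negative and 100% = median of positive control wells; the first replicate is given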
eIF4H inh: inhibitors of RNA binding by human eIF4H; eIF4H fluorescence polarization binding assay; inhibition, % at 35 µM; hit rate 0.94% among 290,000;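 active = 50% or more with normal probe brightness, or confirmed in later tests; inconclusive = above 50% with abnormal brightness, or retests that disagree; inactive = below 50% or failed in later tests; about a fifth of its hits are not listed in these tables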;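 note: calls also rest on retests at 20 µM and on dose response follow-up; 0% = protein and probe with vehicle and 100% = probe without protein; strong numbers were not always called active; many hits fall short of the cut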
MT1-MMP act inh RFP: recorded beside MT1-MMP act inh, whose call it bears; RFP signal change, %; measured here: RFP expression control read;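 0 = vehicle wells; hits needed this value within 50% of zero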
The depositor's hits bear a star; i = inactive; ? = inconclusive; . = not tested or not shown. Not a hit list; about 2.9% have a hit in one of these screens.

SMILES	PABP polyA inh	Rce1 inh	Env fusion inh	MT1-MMP act inh	MT1-MMP act inh RFP	UUG fidelity	CSC inhib	eIF4H inh
Nc1ncnc2c1ncn2C1CCCC1	.	.	0	-1	-3	-9	-14	.
NC(CSC12CC3CC(CC(C3)C1)C2)C(=O)O (stereo unspecified)	-1	i	.	-4	-1	.	-5	-13
CCOC(=O)C1CCCN(C(=O)c2cn(CC(C)C)c(=O)c3cc(OC)c(OC)cc23)C1 (stereo unspecified)	5	i	-25	3	5	-3	0	-5
CCc1ccccc1NC(=S)NCc1ccc2c(c1)OCO2	8	i	-3	-2	-2	-31	-14	2
CCCCNC(=S)N(C)/N=C/c1c(F)cccc1F	-10	i	.	0	3	.	6	10
CC(C)(C)NC(=O)CN(C(=O)CS(=O)CC(=O)Nc1ccc(F)cc1)c1cccc(F)c1 (stereo unspecified)	5	i	8	4	5	-2	-8	4
Cc1cccc(NC(=S)/N=C(\N)Nc2nc(C)c3ccc(C)cc3n2)c1	2	i	.	-7	-15	-40	3	-3
NCC(O)CN(c1ccccc1)c1ccccc1 (stereo unspecified)	-5	i	2	-2	2	.	-11	5
Cc1ccc(C2=C/C(=C\c3cccnc3)C(=O)O2)cc1	6	.	18	-1	1	-18	8	-10
CC(C)[C@H]1CC[C@@H](C)C(C(=O)c2ccccc2)C1=O (stereo partly specified)	8	i	.	0	6	1	-19	-3
CC(C)(C)CN1CCN(Cc2nc(-c3ccc(F)cc3)cs2)CC1CCO (stereo unspecified)	7	i	?	-3	-23	11	29	10
CCOC(=O)Cc1c(C)nc2c(-c3ccccc3OC)c(C)nn2c1C	27	i	-51	-5	-4	-5	3	44
c1ccc2c(c1)oc1c(NCCCn3ccnc3)ncnc12	11	i	.	1	3	-7	-10	5
COc1ccc(CCNC(=O)CCN2C(=O)[C@@H]3Cc4ccccc4CN3C2=O)cc1	.	i	-1	1	6	7	-2	.
Cc1cccc(NC(=O)CNC(=O)CN2C(=O)NC3(CCCCC3C)C2=O)c1C (stereo unspecified)	.	.	6	2	3	4	1	.
O=[N+]([O-])c1ccc(S(=O)(=O)Nc2cccc(-c3ccc(N4CCCC4)nn3)c2)cc1	.	i	-8	10	2	21	-4	.
COc1ccc(NC(=O)/C(=C\c2ccc(F)cc2)NC(=O)c2ccco2)cc1	10	.	20	3	5	-19	-15	-3
c1ccc(-c2nnc3n2CCCC3)cc1	6	i	-3	-1	9	-17	-16	-14
Cc1ccc(NC(=O)CN(C)C(C)C(=O)Nc2ccc(S(=O)(=O)N3CCCC3)cc2)cc1 (stereo unspecified)	.	i	2	1	-1	7	0	.
NC(=O)c1ccccc1NC(=O)/C=C/c1c(Cl)cccc1Cl	-1	i	-422	-5	-3	-17	6	-3

Not a retest: 4 of the compounds above.
SMILES	PABP polyA inh	Rce1 inh	Env fusion inh	MT1-MMP act inh	MT1-MMP act inh RFP	UUG fidelity	CSC inhib	eIF4H inh
Nc1ncnc2c1ncn2C1CCCC1	.	.	0	-1	-3	-9	-14	.
NC(CSC12CC3CC(CC(C3)C1)C2)C(=O)O (stereo unspecified)	-1	i	.	-4	-1	.	-5	-13
CCOC(=O)C1CCCN(C(=O)c2cn(CC(C)C)c(=O)c3cc(OC)c(OC)cc23)C1 (stereo unspecified)	5	i	-25	3	5	-3	0	-5
CCc1ccccc1NC(=S)NCc1ccc2c(c1)OCO2	8	i	-3	-2	-2	-31	-14	2

More entries
SMILES	PABP polyA inh	Rce1 inh	Env fusion inh	MT1-MMP act inh	MT1-MMP act inh RFP	UUG fidelity	CSC inhib	eIF4H inh
CCCN1CCN(C(=O)Cn2cccc2C(=O)c2ccccc2)CC1	4	i	.	-2	-2	-13	-6	-6
COC(=O)C(Cc1ccc(O)cc1)NC(=O)c1ccccc1OC (stereo unspecified)	-16	i	.	0	5	1	-7	0
c1ccc(CSc2nnc3ccc(-c4ccco4)nn23)nc1	2	i	-11	4	2	-26	11	12
COc1ccc(CCNC(=O)c2c(-c3ccccc3Cl)noc2C)cc1	10	i	.	0	-4	-13	.	9
C/C=C/c1ccc(OCCCCn2cncn2)c(OC)c1	20	.	-14	-6	-5	-15	-8	9
CC1=C(C)CC2(SC1)C(=O)N(c1ccccc1)N=C2N (stereo unspecified)	6	i	3	2	4	.	0	-1
Cc1cc(C)c2nc(N3CCC(C(=O)NCCCN4CCCCC4)CC3)sc2c1	-13	i	-18	4	1	.	-2	6
COC(=O)c1c(NC(=O)C2COc3ccccc3O2)sc2c1CCN(C(=O)OC)C2 (stereo unspecified)	.	.	-8	-6	-5	-1	.	.
CCC(Sc1nnnn1C)C(=O)Nc1ccc(C(C)=O)cc1 (stereo unspecified)	12	i	.	1	3	-4	12	10
Cc1ccc(-c2csc(N3CCC[C@@H]3C(=O)NCCn3c(-c4ccncc4)nc4ccccc43)n2)cc1	-4	i	16	0	3	-7	-8	-18
Cc1cccc(C)c1NC(=O)C(c1ccc([N+](=O)[O-])cc1)N(C)C(=O)c1ccccn1 (stereo unspecified)	13	i	.	3	2	-18	9	3
O=[N+]1C2=C(CCCC2)N([O-])C12CCCC2	-7	i	.	9	3	-15	-11	-1
COc1ccc(OCC(=O)Nc2cccc3ncccc23)cc1	11	i	.	4	-3	-7	0	-1
Cc1nnc(N2C(=O)c3oc4ccccc4c(=O)c3C2c2ccco2)s1 (stereo unspecified)	10	i	-16	0	5	-10	-3	22
O=C(C1CC1)N1CCN=C1SCc1ccc(F)cc1	7	i	-17	1	5	4	1	10
O=C(N/N=C/c1ccccn1)c1[nH]c2ccc([N+](=O)[O-])cc2c1-c1ccccc1	2	i	-2	0	-12	-4	51	19
Cn1c(SCC(N)=O)nnc1C1CCN(S(=O)(=O)c2ccccc2C(F)(F)F)CC1	-9	i	0	-5	-1	-15	-3	4
O=C(Cn1nnc(-c2ccccc2)n1)NNC(=O)c1cccc([N+](=O)[O-])c1	-9	i	23	1	3	-4	.	-5
Cc1nnc(NC(=O)Cn2c(=O)sc3ccccc32)s1	-2	i	12	2	6	-20	6	0
Nn1c(SCc2ccccc2)nc2ccccc21	3	i	-59	-7	-6	-20	-6	-2
O=C(NCCCn1ccnc1)c1ccc(N2CCCCC2)c([N+](=O)[O-])c1	-7	i	6	7	0	.	.	-14
COc1cc(/C=C/c2cccc[n+]2C)ccc1OCC(=O)Nc1ccccc1	47	i	-19	-1	2	-3	.	-5
Cc1cc(C(=O)O)ccc1-n1c(C)cc(C=C2C(=O)c3ccccc3C2=O)c1C	41	i	14	1	-1	.	-9	27
Cc1[nH]c2ccccc2c1C(=O)C(C)Sc1nnc(C2CC2)o1 (stereo unspecified)	.	.	5	-2	-5	-7	.	.
CCS(=O)(=O)N1CCC(N2CCC(C)CC2)CC1	8	i	-5	0	3	-17	3	9
C/C(=N\NC(=O)c1ccc2ccccc2c1)c1cccnc1	-7	.	-23	-1	2	-27	0	-11
CCOc1cc(N2CCOCC2)c(OCC)cc1NC(=O)COC(=O)c1cccc2ccccc12	-2	i	17	2	2	.	17	-5
Cc1ccc(C(=O)NCCCc2ccccc2)c(Cl)c1	6	i	-33	5	1	-9	-7	10
O=C(CCC(=O)N1CCOc2ccccc21)Nc1ccc(F)cc1F	-18	i	5	3	3	-17	-8	-2
COc1ccc(-c2nc(CS(=O)(=O)CC(=O)NCCc3ccccc3)c(C)o2)cc1	4	i	14	1	-1	-6	-7	8
Cc1ccc2c(Cl)cc(Cl)c(OCC(=O)N(C(C)C)C(C)C)c2n1	0	i	8	4	3	.	7	-5
Nc1nc(-c2cc(O)ccc2[N+](=O)[O-])cc(-c2ccccc2)c1[N+](=O)[O-]	84*	i	-292	-12	-1	-8	13	98*
Cc1ccc(C(=O)N2CC(C)CC(C)C2)cc1NC1=NC2CS(=O)(=O)CC2S1 (stereo unspecified)	-18	i	-24	3	6	-19	-2	-14
Cc1cccc(OCCNc2cc(N3CCN(C)CC3)ccc2[N+](=O)[O-])c1	4	i	.	4	-7	-24	80*	-2
CN(CC(=O)Nc1cccc(F)c1)C(=O)CCc1nc2cc(S(=O)(=O)N3CCOCC3)ccc2n1C	.	i	-10	6	5	-14	-16	.
O=C1/C(=C\c2ccccc2Cl)SC(=S)N1CCC(=O)N1CCCc2ccccc21	-4	i	8	4	4	-12	41	-9
CCOC(=O)c1sc(NC(=O)CSc2nnc(C)s2)c(C(=O)OCC)c1C	-4	i	8	-11	-10	-9	-11	-11
CCOC(=O)N1CCC(NC(=O)CCc2nc(-c3ccccc3F)no2)CC1	-5	i	.	0	1	1	5	-8
O=[N+]([O-])c1cc(Cl)ccc1Nc1ccccc1	-1	i	.	7	4	-13	-10	-3
Cc1ccccc1C(=O)NNC(=O)C1CCCN(c2ncccn2)C1 (stereo unspecified)	-6	i	-35	5	3	-14	.	-2
CC(C)CCNC(=O)C(c1ccco1)N(Cc1ccccc1)C(=O)c1snc(C(N)=O)c1N (stereo unspecified)	-1	i	.	-5	-8	7	-8	-3
Cc1c(C=O)c2ccccc2n1CC(=O)N1CCc2ccccc2C1	5	i	.	-3	-6	-22	-15	-9
CC(C)=CCC/C(C)=C/CNC(=O)C[C@H]1C[C@H](C(=O)N(C(C)C)C(C)C)[C@@]2(C)c3[nH]c4ccc(Cl)cc4c3CCN2C1=O	.	.	1	-31	-31	-12	.	.
CN(C(=O)CSc1nnc(Nc2ccccc2F)s1)C1CCS(=O)(=O)C1 (stereo unspecified)	.	.	.	1	-2	-8	-12	.
Cc1cc([N+](=O)[O-])ccc1NC(=O)CSc1nncn1-c1cccnc1	6	.	11	0	-6	-4	0	-12
NC(=O)CSc1nnc(NC(=O)c2ccc(S(=O)(=O)N3CCCCC3)cc2)s1	.	i	-9	2	4	.	12	.
Cc1ccc(S(=O)(=O)NC(C)c2ccccc2)cc1[N+](=O)[O-] (stereo unspecified)	4	i	28	-3	-5	-8	-4	7
CCN(CC)CCCN1C(=O)C(O)=C(C(=O)c2ccco2)C1c1ccc(OC(C)C)cc1 (stereo unspecified)	4	i	.	-6	0	-13	6	-1
O=C(Cc1ccc2c(c1)OCCO2)N1CCN(S(=O)(=O)c2cccs2)CC1	-2	i	16	-5	0	-9	0	-3
O=C(NNC(=O)c1csc(-c2cnccc2C(F)(F)F)n1)c1ccc(C(F)(F)F)cc1	4	.	5	3	4	-13	12	8
CC1CCCC(C)N1CC(O)Cn1c2ccccc2c2ccccc21 (stereo unspecified)	-6	i	-108	-1	2	-17	-5	-2
COc1ccc(S(=O)(=O)N2CCOC2CNC(=O)C(=O)NCCN2CCOCC2)cc1C (stereo unspecified)	1	i	-19	-2	1	0	4	2
O=C(Nc1cccc(S(=O)(=O)C(F)(F)F)c1)[C@@H]1O[C@H](CO)[C@@H](O)[C@H]1O	.	.	-11	0	10	-24	.	.
Cn1c(SCc2ccccn2)nnc1-c1cnccn1	-2	i	-21	-1	0	-16	-4	2
O=C(CCNS(=O)(=O)c1ccc(Cl)cc1)NCc1cccnc1	-7	i	6	-2	0	.	-14	-1
CCOc1ccc(CC2S/C(=N/N=C/c3ccco3)NC2=O)cc1 (stereo unspecified)	-6	i	14	0	4	.	-18	-7
CC1CCCCN1C(=O)CSc1nc(-c2ccccc2)cc(=O)[nH]1 (stereo unspecified)	-1	i	-1	1	0	12	9	-3
CC(C(=O)NN=C(c1ccccc1)c1ccccc1)N1CCOCC1 (stereo unspecified)	-10	i	10	-11	-1	.	-8	-11
Cc1cccc(C)c1NC(=O)CSc1nnc(-c2cccnc2)o1	28	i	11	-2	2	.	-16	-3

Screening data: PubChem, several laboratories
